From PubChem BioAssay
ALR H2O2 inh: inhibitors of human sulfhydryl oxidase ALR; P55789; purified ALR, DTT oxidation, H2O2 HRP-luminol luminescence; inhibition, % (no concentration beside the values); 290,000 compounds, 3.8% hits; AID 485317;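 active = mean and each replicate at 75% or more; inconclusive = only one of the two met; inactive = neither met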;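 also: stock transfer was 7.5 nL into about 7.5 µL; 0% = neutral wells and 100% = wells with inactivated enzyme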
Target sequence (P55789 whole entry, looked up): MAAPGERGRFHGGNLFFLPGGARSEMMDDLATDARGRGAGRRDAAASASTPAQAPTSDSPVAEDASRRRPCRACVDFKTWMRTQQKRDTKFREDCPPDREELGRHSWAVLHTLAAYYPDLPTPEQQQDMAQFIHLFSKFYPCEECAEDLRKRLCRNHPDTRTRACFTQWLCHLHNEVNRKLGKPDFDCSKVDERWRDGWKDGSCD
MLL AF4-AF9 inh: MLL-AF4/AF9 protein interaction inhibition; AlphaScreen, biotin-AF4 peptide binding to FLAG-AF9; inhibition, % at 10 µM; 350,000 compounds, 0.47% hits;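 active = every replicate reaching a set inhibition limit, whatever the replicate mean, cut at about 25% in these data; inconclusive = mean inhibition reaches that limit but some replicates miss it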;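 also: 0% = plate neutral control median and 100% = total signal loss; the record names both 10 and 1 µM as test concentration; the first replicate is given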
Target sequence (P42568 whole entry, looked up): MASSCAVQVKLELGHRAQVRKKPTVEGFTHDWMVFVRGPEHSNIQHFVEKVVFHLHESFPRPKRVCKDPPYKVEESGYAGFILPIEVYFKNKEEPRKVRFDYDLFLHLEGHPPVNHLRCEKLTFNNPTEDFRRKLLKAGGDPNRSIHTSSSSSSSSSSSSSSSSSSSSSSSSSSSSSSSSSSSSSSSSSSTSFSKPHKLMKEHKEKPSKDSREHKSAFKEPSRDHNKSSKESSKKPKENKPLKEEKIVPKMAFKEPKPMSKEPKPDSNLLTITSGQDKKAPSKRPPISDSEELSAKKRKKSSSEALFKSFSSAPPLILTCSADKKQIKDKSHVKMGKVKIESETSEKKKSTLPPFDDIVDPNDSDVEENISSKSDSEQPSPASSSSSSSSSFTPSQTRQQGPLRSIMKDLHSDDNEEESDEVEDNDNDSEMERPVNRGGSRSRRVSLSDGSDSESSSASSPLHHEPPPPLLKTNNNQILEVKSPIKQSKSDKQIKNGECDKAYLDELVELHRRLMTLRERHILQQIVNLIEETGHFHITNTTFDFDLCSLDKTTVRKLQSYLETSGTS
FGF22 binding: shifts melting point of recombinant human FGF22. recombinant FGF22 thermal shift, SYPRO orange fluorescence; percent of sucrose octasulfate shift, DMSO zero. 340,000 compounds, 1.5% hits. Q9HCT0. calls only at 9.99 µM;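 active = melting point raised past a set limit in the mean and every replicate; inconclusive = no clear call; three in four hits are not shown here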
Target sequence (Q9HCT0 whole entry, looked up): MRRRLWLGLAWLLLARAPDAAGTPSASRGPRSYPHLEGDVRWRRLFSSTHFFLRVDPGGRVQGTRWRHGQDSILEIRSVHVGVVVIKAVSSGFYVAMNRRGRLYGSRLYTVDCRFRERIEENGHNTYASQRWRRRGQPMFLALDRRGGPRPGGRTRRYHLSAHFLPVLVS
RanGTP-Impb inh: inhibitors of RanGTP-importin-beta interaction, primary screen, biochemical, FRET, CFP-Ran, YFP-importin-beta, homogeneous; inhibition, % (test concentration not listed); cell-free CFP-Ran/YFP-importin-beta FRET ratio; 300,000 compounds, 1.1% hits; AID 2216;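 active = most replicates above 15%; inconclusive = exactly half above 15%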;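 also: 0% = DMSO wells and 100% = Ran loaded with GDP instead of GTP; wells of about 40 µL received 100 nL stock; the first replicate is given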
Ecoli rRNA inh: inhibitors of bacterial rRNA selective over humanized ribosomes; E. coli WT GFP vs humanized-ribosome RFP mutants, fluorescence, 24 h; hits give low values; DMSO median 0, no signal -100; GFP signal change (wild-type ribosome), % (test concentration not listed); 350,000 compounds, 1.6% hits;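 active = significant combined selectivity score with lowered wild-type GFP, culture density cut under 30%, mutant RFP and density less affected; inactive = any of these conditions unmet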; also: one replicate is shown; some compounds called inactive have numbers as strong as hits
T cruzi inh: blocks replication of Trypanosoma cruzi; inhibition, % (test concentration not listed); T. cruzi beta-gal in NIH3T3, luminescence, 90 h; AID 1885; 300,000 compounds, 1.4% hits;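 active = mean inhibition across valid replicates above about 55%, limit read from the data; inconclusive = mean below that limit but half or more replicates reach it; inactive = mean below it, under half of replicates reach it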;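 also: signal also drops with host cell toxicity which is not excluded here; 0% = plate median of DMSO wells and 100% = zero luminescence signal; higher percent means less beta-gal luminescence so fewer parasites; stock transfer was 50 nL into about 50 µL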
Calb FLC: C. albicans growth modulation with fluconazole; C. albicans CaCi-2 (fluconazole-resistant clinical isolate) + fluconazole, Alamar Blue growth, 48 h; growth inhibition, % (test concentration not listed); 300,000 compounds, 0.57% hits;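 active = most replicates above 75%; inconclusive = exactly half above 75%; inactive = most below 75%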;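 also: all wells also contain fluconazole at 8 µg/ml as a sub-toxic cotreatment; 0% = median of DMSO wells and 100% = median of geldanamycin control wells; wells of about 8 µL received 7.5 nL stock; the first replicate is given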
Beta apoptosis: beta cell apoptosis inhibition | 300,000 compounds, 0.8% hits | protection from apoptosis, % (concentration not given with the values) | INS-1E cytokine-induced death, ATP luminescence, 48 h; percent of positive-control rescue, neutral wells zero;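 active = all replicates at 75% or more, or half of them and the mean; inconclusive = half reach 75% but not the mean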;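 also: 0% = cytokine-treated negative control wells and 100% = positive control rescue; higher means more ATP so stronger rescue from cytokine killing; wells of about 40 µL received 100 nL stock; the first replicate is given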
Ecoli rRNA inh OD600: second read-out of Ecoli rRNA inh, no call of its own (marks repeat the call); OD600 change, %; measured here: OD600 growth;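 optical density of the mix in the first replicate; 0 = DMSO median and -100 = no signal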
Ecoli rRNA inh RFP: second read-out of Ecoli rRNA inh, no call of its own (marks repeat the call); RFP signal change, %; measured here: RFP humanized mutant strains;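 first replicate; 0 = DMSO median and -100 = no signal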
Starred values were filed as active, the others as inactive; i = inactive; u = inconclusive; x = no result given; & = joins results of further samples.

SMILES	ALR H2O2 inh	MLL AF4-AF9 inh	FGF22 binding	RanGTP-Impb inh	Ecoli rRNA inh	Ecoli rRNA inh OD600	Ecoli rRNA inh RFP	T cruzi inh	Calb FLC	Beta apoptosis
COc1ccc(C2CC(Cn3cc(C#N)c(=O)n(C)c3=O)ON2C)cc1 (stereo not drawn)	-4	0.0	i	-0.9	10	-3	-0.7	-11	4	0
Cc1ccc2cc(C3C(C#N)=C(N)Oc4c3ccc3cccnc43)c(=O)[nH]c2c1 (stereo not drawn)	-103	18	i	2.2	-4	-5	2.0	-8	87*	88*
C/C(=C\C(=O)C(F)(F)F)Nc1ccc(C(F)(F)F)cc1	-16	x	x	20*	x	x	x	-6	-4	2
CC1CCCC(N2CCN(S(=O)(=O)c3ccccc3)CC2)C1 (stereo not drawn)	1	-0.2	i	0.8	5	-3	-1.2	-14	-14	-4
CSCCC(Nc1nc2ccccc2s1)C(=O)O (stereo not drawn)	28	x	x	3.4	x	x	x	-7	-2	-4
COc1cccc2sc(N3CCN(c4nc5ccccc5s4)CC3)nc12	x	x	x	-2.3	x	x	x	16	-3	51
Cc1ccccc1Nc1c(N)c(=O)oc2ccccc12	99*	x	x	1.5	x	x	x	-26	14	-10
Cc1cc(C)nc(NS(=O)(=O)c2ccc(-n3cccc3)cc2)n1	-6	x	x	-0.4	x	x	x	-12	-15	-2
Cc1ccc(O)c(C(=O)c2cnc3c(c2)CN(CCC(C)C)C(=O)N3)c1	32	x	x	-1.8	x	x	x	4	4	16
Cc1cccc2c1N(CCCOc1ccccc1)C(=O)C2=O	0	x	x	5.2	-22	-20	-7.1	-13	-2	-6
CCCCOC(=O)C1[C@H]2C(=O)N(CCc3ccccc3)C[C@]23C=C[C@H]1O3 (stereo partly drawn)	6	x	x	-0.4	x	x	x	-4	-11	x
CCN(CC)c1ccc(NC(=O)c2ccccc2F)cc1S(=O)(=O)Nc1ccccc1OC	-8	x	x	-5.0	x	x	x	44	5	49
O=C(CCC1CCN(C(=O)c2cccc(Cl)c2F)CC1)Nc1ccccc1	-9	-1.5	i	2.9	-4	-11	2.4	-2	12	1
c1ccc(-c2csc(Nc3nc(N4CCOCC4)nc(N4CCOCC4)n3)n2)cc1	1	x	x	-2.7	x	x	x	61*	1	-4
CCOC(=O)C1(Cc2cccc(OC)c2)CCCN(C(=O)CSC)C1 (stereo not drawn)	x	2.5	i	-0.2	7	11	-3.4	-6	-4	1
O=C(NCc1ccc2c(c1)OCO2)C(=O)Nc1ccccc1	1	1.0	i	-0.7	26	28	2.5	3	2	3
CCCCNC(=O)C(=O)NCCCn1ccnc1	-4	-0.3	i	3.4	9	14	0.9	-1	2	3
C=CCn1c(SCC(=O)Nc2ncc(Cc3ccc(Br)cc3)s2)nnc1-c1ccncc1	x	-1.6	i	-3.1	12	-2	-3.3	41	-9	-4
CCSc1nc2ccccc2[nH]1	5&-10	x	x	-3.6&-2.4	x	x	x	-13&-20	-22&1	-6&1
CSC1=N/C(=C/c2cccnc2)C(=O)N1Cc1ccc(Cl)cc1	-29	0.8	i	0.0	8	4	4.3	28	-10	0
NS(=O)(=O)c1ccc(NC(=O)COC(=O)C2CC2)cc1	-5	-0.6	i	x	8	13	-0.8	x	x	4
Cc1cc(Cl)ccc1C1=CC(=O)C[C@H](c2ccc(F)cc2)C1	1	x	i	x	-1	-27	-7.0	x	x	1
Nc1ccn(Cc2cccc(F)c2)n1	2	-0.8	i	-2.1	3	-3	0.6	-2	33	-8
O=C(Nc1ccc(-c2nc3ccccc3o2)cc1)C1CCCO1 (stereo not drawn)	-3	x	x	u	x	x	x	-3	9	1

The last five compounds of the part above open the next one:
SMILES	ALR H2O2 inh	MLL AF4-AF9 inh	FGF22 binding	RanGTP-Impb inh	Ecoli rRNA inh	Ecoli rRNA inh OD600	Ecoli rRNA inh RFP	T cruzi inh	Calb FLC	Beta apoptosis
CSC1=N/C(=C/c2cccnc2)C(=O)N1Cc1ccc(Cl)cc1	-29	0.8	i	0.0	8	4	4.3	28	-10	0
NS(=O)(=O)c1ccc(NC(=O)COC(=O)C2CC2)cc1	-5	-0.6	i	x	8	13	-0.8	x	x	4
Cc1cc(Cl)ccc1C1=CC(=O)C[C@H](c2ccc(F)cc2)C1	1	x	i	x	-1	-27	-7.0	x	x	1
Nc1ccn(Cc2cccc(F)c2)n1	2	-0.8	i	-2.1	3	-3	0.6	-2	33	-8
O=C(Nc1ccc(-c2nc3ccccc3o2)cc1)C1CCCO1 (stereo not drawn)	-3	x	x	u	x	x	x	-3	9	1
Cc1n[nH]c(C)c1S(=O)(=O)N1CCC(C(=O)Nc2cccc(F)c2)CC1	-3	-3.2	i	5.9	6	9	1.6	-10	18	x
CCOC(=O)c1ccc(CSc2n[nH]c(C)n2)o1	-1	x	x	-0.2	x	x	x	8	6	5
CCOC(=O)c1nnc(-c2ccccc2)nc1NC	-13	x	x	-5.9	x	x	x	11	u	0
O=C(O)c1cn(C2CC2)c2cc(N3CCN(S(=O)(=O)c4ccc5c(c4)OCCO5)CC3)c(F)cc2c1=O	x	0.3	i	-3.2	-50	-76	-15	10	-29	11
CC(C)C1N(C(=O)CN2CCCC2)CCN1S(=O)(=O)c1ccccc1 (stereo not drawn)	0	x	x	-0.4	x	x	x	-9	3	-2
CCn1nc(NC(=O)C2CCCO2)c2cc3cc(C)ccc3nc21 (stereo not drawn)	-12	-23	i	44*	7	8	3.3	-2	-17	2
Fc1ccccc1/C=N/n1cc(-c2ccccc2)[nH]c1=S	u	9.8	i	0.3	13	13	5.7	16	21	17
CCOC(=O)/C=c1\s/c(=C\c2ccc(C#N)cc2)c(=O)n1CC(=O)Nc1cccc(C)c1C	-1	x	x	-4.8	x	x	x	-48	-18	21
C=CCN(C(=O)c1csnn1)C(C(=O)NCc1ccc(F)cc1)c1sccc1C (stereo not drawn)	-1	-0.5	i	-0.4	-2	-11	1.1	17	3	7
CSC1=NC2(CCCCC2)CC12C=CC(=O)C=C2	x	0.8	i	-0.3	1	5	-1.9	-36	11	-3
O=C(NC(=S)Nc1cccc2c(O)cccc12)c1ccco1	99*	2.3	i	-0.5	-16	-22	5.1	20	19	8
CC(=O)Nc1ccc(NC(=O)C(C)OC(=O)CC23CC4CC(CC(Br)(C4)C2)C3)cc1 (stereo not drawn)	-2	-1.2	x	x	7	10	1.0	x	x	-5
O=C(NC(=S)N1CCN(c2ccc(O)cc2)CC1)c1cccs1	99*	1.6	i	2.4	7	18	13	-28	-4	6
O=C(Nc1ccncc1)c1ccc(S(=O)(=O)Nc2ccccc2)cc1	5	3.8	i	u	-23*	-6.6*	-5.2*	4	2	7
O=C(CN1CCCCC1)Nc1nnc(-c2ccccc2)s1	-6	x	x	3.0	x	x	x	5	1	-3
COc1cc(OC)cc(C(=O)NCC(=O)OCC(=O)Nc2ccc3c(c2)OCO3)c1	-13	0.5	i	-3.5	7	6	1.9	11	8	-2
COc1cccc(C(=O)OC(C)C(=O)Nc2ccc3c(c2)OCO3)c1 (stereo not drawn)	-11	u	i	x	4	3	2.4	x	x	0
CCOC(=O)c1oc2cccc(OCC(O)CNC(C)C)c2c1C (stereo not drawn)	-1	x	x	-2.2	x	x	x	23	-45	3
Cc1cccc(-n2cc(-c3ccccc3)c3c(N4CCOCC4)ncnc32)c1	x	7.4	x	-0.3	-13	-9	-0.5	29	-6	17
CCC(C(=O)OCc1csc(CC(=O)Nc2ccccc2C)n1)c1ccccc1 (stereo not drawn)	-9	0.3	i	x	-5	-18	19	x	x	3
Cc1ccc(C(=O)NCC(c2ccc(F)cc2)N2CCOCC2)cc1 (stereo not drawn)	19	-1.0	i	-2.4	2	9	-2.4	-4	1	-7
COc1ccccc1N1C(=O)C2C3C=CC(C3)C2(C)C1=O (stereo not drawn)	-1	x	x	1.4	x	x	x	18	x	-8
COc1cccc(Cn2cccc(NC(=O)Nc3cccc(C#N)c3)c2=O)c1	-21	-2.1	i	-5.7	3	-2	-0.8	4	2	-1
CC1CCN(S(=O)(=O)c2ccc3c(c2)oc(=O)n3CC(=O)N2CCc3ccccc3C2)CC1	25	2.0	i	0.5	-8	2	-1.9	-3	-6	2
Cc1ccc2occ(C(=O)c3ccco3)c(=O)c2c1	9	-0.7	i	-1.1	-19	-20	-7.1	-8	1	-3
O=C(N/N=C\c1ccc(Oc2ccccc2)cc1)c1csnn1	-9	-0.9	i	2.0	12	12	0.3	3	-9	-4
CCOc1ccc(C(=O)NC2CCN(C(=O)Nc3ccccc3OC)CC2)cc1	x	x	x	-1.2	x	x	x	1	-3	2
C/C(=N\NC(=O)c1ccc(Cl)cc1)c1cccc(NC(=O)C(C)C)c1	5	x	x	0.6	x	x	x	-7	2	0
N=c1c2c(n(Cc3ccc(F)cc3)c3c1CCC3)CCC2	-1	-69	i	-1.8	-29*	-14*	4.9*	51	17	x
c1ccc2nc(N3CCOCC3)cnc2c1	-12	x	x	-0.5	x	x	x	-5	-13	-9
Cc1cc(C)cc(N(C)S(=O)(=O)c2nnc(NC(=O)C(C)C)s2)c1	-3	-2.6	i	-1.4	0	3	-5.2	-1	-3	-10
CCC(=O)Nc1cc(SCCO)cc([N+](=O)[O-])c1	-5	x	x	-1.1	x	x	x	4	-7	-4
COc1ccc(C2(C)NC(=O)N(CC(=O)Nc3ccc4c(c3)CCC4)C2=O)cc1OC (stereo not drawn)	2	2.3	i	x	-9	-12	4.0	x	x	-2
COC(=O)C1=C(C)N(CCc2ccc(OC)c(OC)c2)C(=O)C1	-2	x	x	-1.8	x	x	x	-19	1	1
Cc1cc(C(=O)NC2CCCc3ccccc32)ccc1[N+](=O)[O-] (stereo not drawn)	x	6.7	i	2.4	-5	-8	-2.8	11	-1	1
COc1ccc(CC(=O)NCC2CCCN(Cc3ccccc3OC)C2)cc1 (stereo not drawn)	x	-1.9	i	7.9	9	11	8.6	48	8	x
CC(C)N1C(=O)CCC1C(=O)NC1CCCC1 (stereo not drawn)	-6	x	x	-0.1	x	x	x	-43	-13	-7
CCOc1ccc(Oc2ccc(Cl)cc2NC(=O)CCNC(C)=O)cc1	-8	-0.4	i	-0.2	3	-1	0.4	-14	-4	-8
CCn1nc(C)c(CN2CCN(Cc3ccc(OC)c(C)c3C)C(CCO)C2)c1C (stereo not drawn)	-8	x	x	1.8	x	x	x	29	6	-3

RanGTP-Impb inh: entries above that show a hit
Molecule	ALR H2O2 inh	MLL AF4-AF9 inh	FGF22 binding	RanGTP-Impb inh	Ecoli rRNA inh	Ecoli rRNA inh OD600	Ecoli rRNA inh RFP
C/C(=C\C(=O)C(F)(F)F)Nc1ccc(C(F)(F)F)cc1	-16	x	x	20*	x	x	x
CCn1nc(NC(=O)C2CCCO2)c2cc3cc(C)ccc3nc21 (stereo not drawn)	-12	-23	i	44*	7	8	3.3

The list is partial (hit frequency here may not be typical).
